NS1 inh = influenza NS1 inhibition. S. cerevisiae slowed by influenza A NS1, growth recovery by OD600. Potency, µM (highest dose often 46.1 µM), for inactives: top-dose activity, positive = more growth. 270,000 tested, 0.4% active. AID 2326; active means well fitted rising curve with a large enough effect; inconclusive means small, poorly fitted or top-dose-only effect; inactive means no such curve, though single readings can be large or run the other way; note: nearly all actives have a fitted effect of over 50% in size
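S. cerevisiae expressing influenza A NS1, grown in glucose, washed, then diluted 1:100 into pH 6.0 -URA galactose medium with 23 nl compound. Growth recovery read as OD600; NS1-free strain serves as control.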
SARS PLpro yeast = SARS-CoV PLP inhibition in yeast; Potency, µM (highest dose often 32.9 µM), for the others: top-dose activity, positive = growth rescue; S. cerevisiae expressing SARS-CoV PLpro, growth rescue; control for the full effect not named in the record; 330,000 tested, 0.19% active; AID 485353; active means well fitted rising curve with a large enough effect; inconclusive means small, poorly fitted or top-dose-only effect; inactive means no such curve, though single readings can be large or run the other way; note: 0% is about no effect; nearly all actives have a fitted effect of over 55% in size; growth read by luminescence after 48 h
Cruzain noTriton = blocks cruzain activity in detergent-free assay. purified cruzain, Z-FR-AMC fluorescence, no detergent. Potency, µM, for the others: max response, negative = inhibition, hits mostly inhibitors. 200,000 tested, 2.3% active. AID 1476;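 note: plate controls were enzyme without inhibitor for no effect and buffer without enzyme for full effect; nearly all actives have a fitted effect of over 40% in size; top concentration of the series not given in the record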
Target sequence (P25779 123-467 limits assumed): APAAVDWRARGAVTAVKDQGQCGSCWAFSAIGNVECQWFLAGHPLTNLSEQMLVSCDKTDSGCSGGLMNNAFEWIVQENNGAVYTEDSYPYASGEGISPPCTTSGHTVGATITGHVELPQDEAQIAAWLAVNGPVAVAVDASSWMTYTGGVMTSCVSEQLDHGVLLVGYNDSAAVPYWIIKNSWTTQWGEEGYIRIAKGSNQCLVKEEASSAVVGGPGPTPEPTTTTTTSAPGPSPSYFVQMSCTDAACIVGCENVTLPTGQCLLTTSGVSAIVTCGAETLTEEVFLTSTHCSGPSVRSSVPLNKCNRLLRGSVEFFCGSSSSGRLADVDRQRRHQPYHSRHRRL
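Detergent-free condition (0.00005% Triton X-100) in acetate buffer pH 5.5 with DTT. 1.5 nM enzyme and compound were pre-mixed 15 min, then 2 uM Z-FR-AMC substrate added; reaction progress from fluorescence change between first and third reads (60 s).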
Cruzain Triton = cruzain (T. cruzi) inhibition with detergent; P25779; purified cruzain, Z-FR-AMC fluorescence, 0.01% Triton; Potency, µM, for the others: max response, negative = inhibition, most hits filed as inhibitors; 200,000 tested, 0.43% active; AID 1478;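 note: plate controls were neutral wells for no effect and buffer without enzyme for full effect; nearly all actives have a fitted effect of over 40% in size; top concentration of the series not given in the record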
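Compounds were screened in titration against cruzain (1.5 nM) with 0.01% Triton X-100 to counter colloidal aggregation. Activity was the AMC fluorescence increase over 60 s after adding 2 uM Z-FR-AMC at pH 5.5.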
StopGo reporter = lowers the luciferase signal of an FMDV 2A StopGo reporter | Potency, µM (highest dose often 57.9 µM), without a hit: at the top dose signal change, negative = less light | human cells with a luciferase reporter of 2A StopGo recoding; control for the full effect not named in the record | AID 1159524 | 410,000 tested, 1.2% active; active = well fitted falling curve with a large enough effect; inconclusive = small, poorly fitted or top-dose-only effect; inactive = no such curve, though single readings can be large or run the other way; tested in HEK293T cells; note: % is set by controls: 0 for no effect and ±100 for the full control effect; nearly all actives have a fitted effect of over 45% in size; luciferase light after 4 h
RE007 growth inh = less growth of the S. pombe RE007 Vpr strain; Potency, µM (highest dose often 92.2 µM), for the others: top-dose activity change, negative = less growth; 360,000 tested, 0.21% active; AID 651644; S. pombe RE007 Vpr strain, BacTiter-Glo ATP luminescence, 24 h; control for the full effect not named in the record; active = well fitted falling curve with a large enough effect; inconclusive = small, poorly fitted or top-dose-only effect; inactive = no such curve, though single readings can be large or run the other way;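 note: % is set by controls: 0 for no effect and ±100 for the full control effect; nearly all actives have a fitted effect of over 50% in size; the assay follows cell death caused by Vpr and the record does not say whether a fall means rescue or toxicity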
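Fission yeast RE007 carrying one integrated HIV-1 vpr copy, seeded at OD 0.01 in PMG+AL medium with 23 nL pinned compound. Grown 24 h at 30 degrees; viability read by BacTiter-Glo luminescence after 5 min.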
Lassa entry inh = inhibitors of Lassa virus binding or cell entry. Lassa virus pseudotype entry inhibition, cell reporter; control for the full effect not named in the record. Potency, µM (series often up to 37.9 µM), inactives show at the top dose activity change, negative = inhibition, usual class: inhibitors. 300,000 tested, 1.2% active; active means well fitted inhibition curve with a large enough effect; inconclusive means small, poorly fitted or top-dose-only effect, or effect the other way; inactive means flat fitted curve, though single readings scatter; tested in HEK293 cells; note: % is set by controls: 0 for no effect and ±100 for the full control effect; nearly all actives have a fitted effect of over 50% in size; luciferase read-out
Marburg entry inh = inhibitors of Marburg virus binding or cell entry. Potency, µM (series often up to 37.8 µM), inactives show at the top dose activity change, negative = inhibition, usual class: inhibitors. Marburg virus pseudotyped entry inhibition, cell reporter; control for the full effect not named in the record; about a third of the inactives were read at about 46 µM. 300,000 tested, 1.8% active; active = well fitted inhibition curve with a large enough effect; inconclusive = small, poorly fitted or top-dose-only effect, or effect the other way; inactive = flat fitted curve, though single readings scatter; tested in HEK293 cells; about a fifth of its hits are not listed in these tables; note: % is set by controls: 0 for no effect and ±100 for the full control effect; luciferase read-out
Starred values were filed as active, the others as inactive; & = joins results of further samples; [ ] = another dose, or the depositor's remark. Unless noted, calls come from the whole dose curve; as a rule, active = well fitted curve in the direction sought with a large enough effect; inconclusive = small, poorly fitted or top-dose-only effect, or another doubt; inactive = no such curve, though single readings can be large; an effect the other way counts as inactive or inconclusive. Potency is the fitted concentration of half-maximal effect.

`COc1ccccc1/C=C1\SC(=O)N(CCC(=O)NNC(=O)c2ccccc2Cl)C1=O` gave NS1 inh 18.5%, SARS PLpro yeast -0.3%, Cruzain noTriton 8.0%, Cruzain Triton 16.4%, StopGo reporter 13.7%, RE007 growth inh 4.1%, Lassa entry inh -0.9% and Marburg entry inh 0.9%[46.1 µM].
For CSCCC(NC(=O)c1ccccc1C)C(=O)O (stereo unspecified) the results were SARS PLpro yeast 0.1%, StopGo reporter 10.3%, RE007 growth inh -4.1%, Lassa entry inh 15.2%[46.1 µM] and Marburg entry inh inconclusive.
Screening CN(C[C@H](Cc1ccccc1)N(C[C@H](CC1CCCCC1)N(CCc1ccccc1)N=O)N=O)N=O returned NS1 inh 1.4%, SARS PLpro yeast 4.3%, StopGo reporter 47.4%[activator] and RE007 growth inh 1.8%.
`COC(=O)c1cc(NS(=O)(=O)c2ccc3c(c2)OCCO3)ccc1Cl` gave Cruzain noTriton 10.4%, Cruzain Triton -9.6%, StopGo reporter 58.4%[activator], Lassa entry inh 1.1%[46.1 µM] and Marburg entry inh 11.0%[46.1 µM].
For COc1cc(C(=O)COC(=O)C2CCCCC2)cc(OC)c1OC the results were SARS PLpro yeast -10.9%, StopGo reporter -11.1%, RE007 growth inh -9.1%, Lassa entry inh 8.1% and Marburg entry inh 13.2%.
CCOc1ccc(C(O)(c2ccccc2)C(CN2CCCC2)c2ccccc2)cc1 (stereo unspecified) was read as NS1 inh 1.0%, SARS PLpro yeast -1.6%, StopGo reporter -21.0%, RE007 growth inh -15.9%, Lassa entry inh -25.8%[46.1 µM] and Marburg entry inh inconclusive.
Screening Cc1cccc(NC(=O)c2cccc(NC(=O)Cc3cccs3)c2)c1 returned NS1 inh -0.5%, SARS PLpro yeast -2.0%, StopGo reporter 16.1%, RE007 growth inh 13.1%, Lassa entry inh inconclusive and Marburg entry inh inconclusive.
Screening Cc1cccc(NC2=NC(C)(C)N=C(N)N2)c1 returned NS1 inh 2.0%, SARS PLpro yeast 0.8%, StopGo reporter -19.5%, RE007 growth inh 1.9%, Lassa entry inh inconclusive and Marburg entry inh inconclusive.
O=[N+]([O-])c1ccc(S(=O)(=O)NCCS(=O)(=O)N2CCN(c3ccccc3)CC2)cc1 was read as NS1 inh 6.4%, SARS PLpro yeast 1.4%, StopGo reporter 0.0% and RE007 growth inh -8.7%.
Screening CCCCn1c(NC(=O)c2ccc(Br)o2)c(S(=O)(=O)c2ccccc2)c2nc3ccccc3nc21 returned NS1 inh 4.4%, SARS PLpro yeast -0.5%, Cruzain noTriton 2.0%, Cruzain Triton -21.7%, StopGo reporter 9.7%, RE007 growth inh -5.4%, Lassa entry inh 2.9% and Marburg entry inh inconclusive.
`CCOC(=O)CCC(=O)Nc1ccc(S(=O)(=O)Nc2cc(OC)nc(OC)n2)cc1` gave NS1 inh -4.2%, SARS PLpro yeast -8.6%, StopGo reporter -6.3% and RE007 growth inh 5.6%.
`CCN(CC)c1nc(N)nc(NS(=O)(=O)c2ccc(Cl)cc2)n1` gave NS1 inh 3.6%, SARS PLpro yeast -3.9%, Cruzain noTriton -2.5%, Cruzain Triton 1.5%, StopGo reporter 102.9%[activator], RE007 growth inh 5.4%, Lassa entry inh -8.0% and Marburg entry inh 7.8%.
`Cc1ccc(NC(=O)C2CCCN2S(=O)(=O)c2cccc3nsnc23)c(C)c1` (stereo unspecified) gave Cruzain noTriton -3.4%, Cruzain Triton -1.5%, StopGo reporter -4.7%, Lassa entry inh -1.4%[46.1 µM] and Marburg entry inh 5.5%[46.1 µM].
For COc1cc(/C=C(\C#N)c2ccccn2)ccc1OCc1ccc(Cl)cc1 the results were NS1 inh -3.6%, SARS PLpro yeast 41.8%, Cruzain noTriton inconclusive, Cruzain Triton -8.0%, StopGo reporter -9.3%, RE007 growth inh -5.0%, Lassa entry inh 8.2% and Marburg entry inh -50.9%.
`O=C(CCCN1C(=O)/C(=C/c2cccs2)SC1=S)Nc1ccccc1O` gave NS1 inh 2.7%, SARS PLpro yeast 1.2%, StopGo reporter -2.4%, RE007 growth inh 11.7%, Lassa entry inh -17.2% and Marburg entry inh inconclusive.
Screening CCOCCCNC(=O)Cn1cc2c(n1)CCCC2 returned NS1 inh 6.9%, SARS PLpro yeast -14.3%, Cruzain noTriton 11.2%, Cruzain Triton 0.9%, StopGo reporter -5.7%, RE007 growth inh 3.6%, Lassa entry inh -0.9% and Marburg entry inh 0.3%.
CCN1CCN(Cc2ccc(NC(=O)c3cc(NC(=O)c4cnnc5ccccc45)cc(OC)c3)cc2C(F)(F)F)CC1 was read as NS1 inh -7.3%, SARS PLpro yeast -0.4%, StopGo reporter -19.1%&-9.1% and RE007 growth inh -1.2%&-6.2%.
Screening COc1ccccc1CNC(=O)c1ccc(N2CCCC2)c(NC(=O)NCCC(C)C)c1 returned Cruzain noTriton -6.9%, Cruzain Triton -0.7%, StopGo reporter 15.8% and Lassa entry inh 5.3%[46.1 µM].
O=S(=O)(Nc1ccc(-c2ccc(N3CCCCCC3)nn2)cc1)c1ccc(C(F)(F)F)cc1 was read as Cruzain noTriton -15.8%, Cruzain Triton -5.6%, StopGo reporter 19.5% and Lassa entry inh inconclusive.
Screening O=C(c1ccccc1NS(=O)(=O)c1ccccc1[N+](=O)[O-])N1CCCC1 returned NS1 inh -2.5%, SARS PLpro yeast 3.2%, StopGo reporter -11.9%, RE007 growth inh 3.8%, Lassa entry inh 8.1% and Marburg entry inh 2.2%.
For O=C(CSCc1c(Cl)cccc1Cl)NCC1CCCO1 (stereo unspecified) the results were NS1 inh -14.0%, SARS PLpro yeast -0.5%, Cruzain noTriton -4.3%, Cruzain Triton 2.9%, StopGo reporter 23.5%, RE007 growth inh 19.4%, Lassa entry inh 15.7% and Marburg entry inh 2.4%.
For COc1cc(OC)c(C2=NOC(C(=O)N3CCCc4ccccc43)C2)cc1Cl (stereo unspecified) the results were NS1 inh -3.1%, SARS PLpro yeast -2.3%, Cruzain noTriton 26.8%, Cruzain Triton -3.1%, StopGo reporter 29.9%, RE007 growth inh 3.9%, Lassa entry inh 0.9% and Marburg entry inh inconclusive.
Screening CCCOc1ccccc1/C=N/Nc1ccnc(=O)[nH]1 returned NS1 inh 3.3%, SARS PLpro yeast 0.4%, StopGo reporter 1.7%, RE007 growth inh 2.8%, Lassa entry inh -19.8% and Marburg entry inh 2.9%.
Screening CC1=C(C(=O)OC2CCCCCC2)C(c2ccc(C)o2)C2=C(CCCC2=O)N1 (stereo unspecified) returned NS1 inh -15.9%, SARS PLpro yeast -12.3%, Cruzain noTriton inconclusive, Cruzain Triton -10.2%, RE007 growth inh -9.6%, Lassa entry inh inconclusive and Marburg entry inh inconclusive.
`COc1cc(NC(=O)C/C(C)=N/NC(=O)C(OC)c2ccccc2)c(OC)cc1Cl` (stereo unspecified) gave NS1 inh 21.8%, SARS PLpro yeast -1.0%, Cruzain noTriton 19.4%, Cruzain Triton -3.0%, StopGo reporter 0.0%, RE007 growth inh inconclusive, Lassa entry inh 7.2% and Marburg entry inh 1.4%.
For COc1ccc2c(c1O)[C@]13CCN(C)[C@H](C2)[C@@H]1CCC(=O)C3 the results were NS1 inh 3.7%, SARS PLpro yeast 1.2%, StopGo reporter -10.4% and RE007 growth inh 4.3%.
`CSc1ccc(Cl)c(C(=O)OCC(=O)NCc2ccco2)c1` gave NS1 inh -31.2%, SARS PLpro yeast 0.0%, Cruzain noTriton 2.6%, Cruzain Triton -21.5%, StopGo reporter 2.7%, RE007 growth inh -11.5%, Lassa entry inh -7.9% and Marburg entry inh -4.5%.
Screening CCOc1cccc2cc(-c3nc(-c4ccccc4C)no3)c(=O)oc12 returned Cruzain noTriton 8.4%, Cruzain Triton -2.3%, StopGo reporter 9.5% and Lassa entry inh inconclusive.
For O=C(CN1CCN(c2ccc(F)cc2)CC1)N1CCOCC1 the results were NS1 inh 4.9%, SARS PLpro yeast -4.1%, Cruzain noTriton 4.8%, Cruzain Triton -3.5%, StopGo reporter -6.6%, RE007 growth inh inconclusive, Lassa entry inh -3.3% and Marburg entry inh 12.9%.
For CCOc1ccc(CNC(=O)c2ccc3c(c2)nc2n3CCOC2)cc1 the results were Cruzain noTriton -3.4%, Cruzain Triton 2.4%, StopGo reporter 28.3% and Lassa entry inh inconclusive.
For S=c1[nH]nc(C2(c3ccccc3)CCCC2)o1 the results were NS1 inh 0.3%, SARS PLpro yeast 0.4%, StopGo reporter -16.1% and RE007 growth inh 1.2%.
COc1ccc(-c2oc3ncn4nc(-c5ccccc5OC)nc4c3c2-c2ccc(OC)cc2)cc1 was read as Cruzain noTriton -7.8%, Cruzain Triton -0.5%, StopGo reporter 1.4% and Lassa entry inh 2.0%[46.1 µM].
Screening COc1ccc(C(=O)c2ccc(Cl)c([N+](=O)[O-])c2)cc1 returned NS1 inh 5.8%, SARS PLpro yeast 8.2%, Cruzain noTriton -21.4%, Cruzain Triton -5.7%, StopGo reporter inconclusive, RE007 growth inh -9.0%, Lassa entry inh inconclusive and Marburg entry inh 5.8µM*.
`O=C(NCc1cccnc1)c1nnc(Cc2ccc(F)cc2)o1` gave NS1 inh -5.6%, SARS PLpro yeast -4.4%, Cruzain noTriton -2.8%, Cruzain Triton -2.0%, StopGo reporter -9.7% and RE007 growth inh -10.0%.
CCOCCCn1c(=NC(C)=O)c(C#N)cc2c(=O)n3cccc(C)c3nc21 was read as NS1 inh 2.4%, SARS PLpro yeast -0.3%, StopGo reporter -10.0%, RE007 growth inh -16.6%, Lassa entry inh -2.3% and Marburg entry inh 2.2%[14.2 µM].
Screening O=C(Nc1ccc(Cl)cc1Cl)C1CCC(=O)N1Cc1ccccc1Cl (stereo unspecified) returned NS1 inh 8.5%, SARS PLpro yeast 4.4%, Cruzain noTriton 5.8%, Cruzain Triton 2.2%, StopGo reporter 0.0%, RE007 growth inh -11.7%, Lassa entry inh 4.9% and Marburg entry inh -4.6%.
